Screening results deposited in PubChem by several laboratories.
Yeast UUG start = modulators of start codon recognition fidelity in yeast. S. cerevisiae UUG-firefly luciferase reporter, luminescence/redox ratio. activity score, % at 18.7 µM. actives 0.13% (n = 350,000);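 active = replicate mean at a twofold rise or more, about +100% in these data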;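 also: firefly luciferase made from a UUG start codon reports start codon fidelity; reporter light over untreated wells divided by growth signal over untreated wells; some hits fall short of that in this replicate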
PABP polyA inh = blocks human PABP binding to poly(A) RNA. actives 1% (n = 290,000). inhibition, % at 35 µM. P11940. fluorescence polarization;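 active = 50% or more with normal probe brightness, or confirmed in later tests; inconclusive = above 50% with abnormal brightness, or retests that disagree; inactive = below 50% or failed in later tests; about a fifth of its hits are not listed in these tables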;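 also: calls also rest on retests at 20 µM and on dose response follow-up; controls were probe without protein and protein plus probe with vehicle; some compounds called inactive have numbers as strong as hits; many hits fall short of the cut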
Target sequence (P11940 whole entry, looked up): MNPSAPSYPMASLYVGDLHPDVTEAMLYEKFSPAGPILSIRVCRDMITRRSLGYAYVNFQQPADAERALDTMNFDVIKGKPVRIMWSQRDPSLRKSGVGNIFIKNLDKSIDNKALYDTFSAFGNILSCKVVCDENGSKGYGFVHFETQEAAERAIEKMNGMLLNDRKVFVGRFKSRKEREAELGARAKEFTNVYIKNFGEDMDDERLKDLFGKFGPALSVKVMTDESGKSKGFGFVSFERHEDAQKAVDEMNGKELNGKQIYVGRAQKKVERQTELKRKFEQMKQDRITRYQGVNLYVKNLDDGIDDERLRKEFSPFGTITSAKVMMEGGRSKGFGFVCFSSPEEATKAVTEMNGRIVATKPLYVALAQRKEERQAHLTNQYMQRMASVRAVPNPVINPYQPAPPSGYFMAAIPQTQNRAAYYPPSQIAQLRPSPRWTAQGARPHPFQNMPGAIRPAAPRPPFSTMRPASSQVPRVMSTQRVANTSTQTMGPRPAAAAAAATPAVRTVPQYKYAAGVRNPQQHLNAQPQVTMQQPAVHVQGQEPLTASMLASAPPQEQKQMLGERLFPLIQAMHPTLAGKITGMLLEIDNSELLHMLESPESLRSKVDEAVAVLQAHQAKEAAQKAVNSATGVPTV
MT1-MMP act inh = MT1-MMP (human) activation inhibition. HT1080 RFP-PRO-GFP cells, GFP/RFP ratio fluorescence, overnight; percent of plate control window, DMSO zero. GFP/RFP ratio change, % at 20 µM. actives 0.061% (n = 360,000);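 active = GFP/RFP ratio change of at least 30% with cell ATP level not reduced by more than half and red fluorescence within 50% of control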; also: strong numbers were not always called active
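Assay system: HT1080 cells carrying an RFP-PRO-GFP reporter | Dosing: Single dose of 20 µM compound, 1% DMSO final | Incubation: Cells overnight before dosing, compound overnight, 37 °C, 5% CO2 | Evaluation: GFP/RFP fluorescence ratio | Control set: DMSO and RFP-L50D-GFP cell wells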
Env fusion inh = inhibitors of HIV Env-mediated cell fusion. actives 1.1% (n = 360,000). HeLa-JRFL Env/CEM21 cell fusion, luciferase. inhibition, % at 12.3 µM;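 active = mean replicate inhibition score of at least 50 and every replicate individually at or above 50; inconclusive = only one of the two criteria met; inactive = mean below 50 and not all replicates reaching 50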;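 also: 0% = plate neutral controls and 100% = maraviroc near 300 nM; one replicate is shown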
CSC inhib = blocks cancer stem cells; cancer stem cell-like cells viability, luminescence; actives 1.1% (n = 300,000); inhibition, % at 7.5 µM; AID 2717;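 active = mean at 75% or more and at least half the replicates too; inconclusive = mean and replicates disagree; tested in HMLE shEcad cells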;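 also: 0% = median of negative and 100% = median of positive control wells; the first replicate is given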
Rce1 inhib = yeast Ras-converting enzyme inhibition | calls only | actives 0.27% (n = 290,000) | Q03530 | AID 2563 | yeast membranes, quenched prenylated peptide cleavage fluorescence;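 active = fall in fluorescence gain of 50% or more versus controls, with final raw signal at or below 3038400; inconclusive = same 50% fall but final raw signal above 3038400; inactive = fall in fluorescence gain under 50%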;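 also: plate controls were neutral control wells for no effect and wells lacking membranes for full effect; tested at 10 µM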
eIF4H inh = inhibitors of RNA binding by human eIF4H; Q15056; inhibition, % at 35 µM; actives 0.94% (n = 290,000); eIF4H fluorescence polarization binding assay;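 active = 50% or more with normal probe brightness, or confirmed in later tests; inconclusive = above 50% with abnormal brightness, or retests that disagree; inactive = below 50% or failed in later tests; about a fifth of its hits are not listed in these tables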;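 also: calls also rest on retests at 20 µM and on dose response follow-up; 0% = protein and probe with vehicle and 100% = probe without protein; strong numbers were not always called active; many hits fall short of the cut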
MT1-MMP act inh RFP = second read-out of MT1-MMP act inh, no call of its own (marks repeat the call); RFP signal change, %; measured here: RFP expression control read;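 0 = vehicle wells; hits needed this value within 50% of zero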
Numbers without * were called inactive; & = joins results of further samples.

Results for CCN(Cc1nc2ccccc2c(=O)[nH]1)C(=O)c1cccc(NC(=O)c2cccs2)c1 ?
Yeast UUG start: 11; MT1-MMP act inh: -3; Env fusion inh: 1; MT1-MMP act inh RFP: -7

What do the screens show for `Cc1cc(C(=O)COC(=O)c2n[nH]c3ccccc23)c(C)n1C`?
Yeast UUG start: -50; PABP polyA inh: -3; MT1-MMP act inh: 3; Env fusion inh: -109; CSC inhib: -10; Rce1 inhib: inactive; eIF4H inh: -6; MT1-MMP act inh RFP: 1

How did Cc1ccc(NC(=S)N2CCCC2)cc1Cl do in these assays?
Yeast UUG start: -40; PABP polyA inh: 3; MT1-MMP act inh: 0; Env fusion inh: -5; CSC inhib: 0; Rce1 inhib: inactive; eIF4H inh: -1; MT1-MMP act inh RFP: 2

How did O=C(NCC(O)CO)c1ccc2[nH]c3ccccc3c2c1 (stereo unspecified) do in these assays?
Yeast UUG start: 0; PABP polyA inh: 1; MT1-MMP act inh: 4; CSC inhib: -8; Rce1 inhib: inactive; eIF4H inh: -5; MT1-MMP act inh RFP: 1

How did COC(=O)c1cc(NC(=O)CC2SCCNC2=O)cc(C(=O)OC)c1 (stereo unspecified) do in these assays?
Yeast UUG start: -18; PABP polyA inh: 11; MT1-MMP act inh: 3; eIF4H inh: -6; MT1-MMP act inh RFP: 8

How did Cc1ccc(S(=O)(=O)NC2=NCN(C)CN2)cc1[N+](=O)[O-] do in these assays?
Yeast UUG start: -5; PABP polyA inh: -8; MT1-MMP act inh: 0; Env fusion inh: -19; CSC inhib: -4; Rce1 inhib: inactive; eIF4H inh: 8; MT1-MMP act inh RFP: 1

Results for CCn1nnc2sc3c(c2c1=O)CCC(C)C3 (stereo unspecified) ?
Yeast UUG start: -15; PABP polyA inh: 7; MT1-MMP act inh: 1; CSC inhib: -10; Rce1 inhib: inactive; eIF4H inh: 14; MT1-MMP act inh RFP: 12

Results for CCOC(=O)N/N=C/c1ccc(OCCSc2ccc(Cl)cc2)c(OCC)c1 ?
Yeast UUG start: -11; PABP polyA inh: 10; MT1-MMP act inh: 2; Env fusion inh: -21; CSC inhib: 13; Rce1 inhib: inactive; eIF4H inh: -1; MT1-MMP act inh RFP: -1

What do the screens show for `O=C(CSc1ncn[nH]1)NCc1ccc2c(c1)OCO2`?
Yeast UUG start: -12; PABP polyA inh: inconclusive; MT1-MMP act inh: 2; Env fusion inh: -16; Rce1 inhib: inactive; eIF4H inh: 4; MT1-MMP act inh RFP: 1

Results for CCc1nn(C(C)C(=O)N2CCN(c3ccccc3)CC2)c(=O)c2cc3occc3n12 (stereo unspecified) ?
PABP polyA inh: 7; MT1-MMP act inh: 2; Env fusion inh: 9; CSC inhib: 2; Rce1 inhib: inactive; eIF4H inh: 3; MT1-MMP act inh RFP: 1

Results for O=C(COC(=O)c1cccc(S(=O)(=O)N2CCOCC2)c1)NCc1ccccc1 ?
MT1-MMP act inh: -1; Env fusion inh: 68*; CSC inhib: -6; MT1-MMP act inh RFP: 0

What do the screens show for `COC(=O)c1cccc(CN2C(=O)C(C)Sc3cc(Cl)ccc32)c1` (stereo unspecified)?
Yeast UUG start: -23; MT1-MMP act inh: 1; Env fusion inh: -23; MT1-MMP act inh RFP: -9

How did COc1cccc(S(=O)(=O)N(C)C[C@@H]2OCc3cnnn3CCCC(=O)N([C@H](C)CO)C[C@@H]2C)c1 do in these assays?
Yeast UUG start: -2&11; MT1-MMP act inh: 16; Env fusion inh: inconclusive; MT1-MMP act inh RFP: -2

What do the screens show for `COc1cccc(NC(=O)C2C3CC4OC(=O)C2C4C3)c1` (stereo unspecified)?
Yeast UUG start: 6; PABP polyA inh: -9; MT1-MMP act inh: 0; CSC inhib: -7; Rce1 inhib: inactive; eIF4H inh: 2; MT1-MMP act inh RFP: 3

What do the screens show for `N#Cc1cnn2ccc(-c3cc(N4CCOCC4)ccc3[N+](=O)[O-])nc12`?
PABP polyA inh: -4; MT1-MMP act inh: 2; Env fusion inh: 19; CSC inhib: -7; Rce1 inhib: inactive; eIF4H inh: 0; MT1-MMP act inh RFP: 5

Molecules from the list above that have an aryl thioether with sulfur outside any ring (two):
Results for CCOC(=O)N/N=C/c1ccc(OCCSc2ccc(Cl)cc2)c(OCC)c1 ?
Yeast UUG start: -11; PABP polyA inh: 10; MT1-MMP act inh: 2; Env fusion inh: -21; CSC inhib: 13; Rce1 inhib: inactive; eIF4H inh: -1; MT1-MMP act inh RFP: -1

What do the screens show for `O=C(CSc1ncn[nH]1)NCc1ccc2c(c1)OCO2`?
Yeast UUG start: -12; PABP polyA inh: inconclusive; MT1-MMP act inh: 2; Env fusion inh: -16; Rce1 inhib: inactive; eIF4H inh: 4; MT1-MMP act inh RFP: 1

Back to the main list, repeating the 2 entries before the break.
What do the screens show for `COc1cccc(NC(=O)C2C3CC4OC(=O)C2C4C3)c1` (stereo unspecified)?
Yeast UUG start: 6; PABP polyA inh: -9; MT1-MMP act inh: 0; CSC inhib: -7; Rce1 inhib: inactive; eIF4H inh: 2; MT1-MMP act inh RFP: 3

What do the screens show for `N#Cc1cnn2ccc(-c3cc(N4CCOCC4)ccc3[N+](=O)[O-])nc12`?
PABP polyA inh: -4; MT1-MMP act inh: 2; Env fusion inh: 19; CSC inhib: -7; Rce1 inhib: inactive; eIF4H inh: 0; MT1-MMP act inh RFP: 5

Results for CCc1cccc2c1NC(=O)C2=O ?
Yeast UUG start: -9; MT1-MMP act inh: -6; Env fusion inh: -8; MT1-MMP act inh RFP: 4

How did Cc1ccc2nc(-c3ccc(NC(=O)COC(=O)c4ccc(Br)o4)cc3)sc2c1 do in these assays?
Yeast UUG start: -10; PABP polyA inh: 6; MT1-MMP act inh: -1; Env fusion inh: -66; eIF4H inh: -7; MT1-MMP act inh RFP: -1

What do the screens show for `COc1ccc(C2C=C(c3ccccc3)Nc3nc(CCCO)nn32)cc1` (stereo unspecified)?
PABP polyA inh: -3; Env fusion inh: -3; CSC inhib: 2; Rce1 inhib: inactive; eIF4H inh: 9

How did O=C(NCC(=O)N(c1ccc(Cl)cc1)C(C(=O)NC1CCCC1)c1ccncc1)c1ccco1 (stereo unspecified) do in these assays?
Yeast UUG start: -9; PABP polyA inh: -2; MT1-MMP act inh: -6; Env fusion inh: 0; Rce1 inhib: inactive; eIF4H inh: -14; MT1-MMP act inh RFP: 0

What do the screens show for `OCCCNc1nc(-c2ccc(Cl)cc2)nnc1-c1ccc(Br)cc1`?
PABP polyA inh: -13; MT1-MMP act inh: -1; Env fusion inh: 25; CSC inhib: 15; Rce1 inhib: inactive; eIF4H inh: -2; MT1-MMP act inh RFP: -5

How did Cc1ccc(C(O)c2ncc(-c3ccc(Cl)cc3)[nH]2)cc1 (stereo unspecified) do in these assays?
Yeast UUG start: -21; MT1-MMP act inh: 7; Env fusion inh: 13; MT1-MMP act inh RFP: -3

Results for CC(C)CCOCC(=O)Nc1cccc(C(=O)O)c1 ?
Yeast UUG start: -34; PABP polyA inh: -2; MT1-MMP act inh: 6; Env fusion inh: 1; CSC inhib: -5; Rce1 inhib: inactive; eIF4H inh: 2; MT1-MMP act inh RFP: 3

What do the screens show for `CC(=O)c1ccc(OCC(=O)OC(C)C(=O)NC2CCCCC2)cc1` (stereo unspecified)?
Yeast UUG start: -21; MT1-MMP act inh: 0; Env fusion inh: 12; MT1-MMP act inh RFP: 5

What do the screens show for `CN(C)S(=O)(=O)c1ccc(Cl)c(C(=O)Nc2cccc3ncccc23)c1`?
Yeast UUG start: -4; PABP polyA inh: 15; MT1-MMP act inh: 1; Env fusion inh: inconclusive; CSC inhib: -3; eIF4H inh: 20; MT1-MMP act inh RFP: 0

Results for Oc1ccc(/C=N/N(c2ccccc2)c2ccccc2)cc1O ?
Yeast UUG start: -25; PABP polyA inh: 10; MT1-MMP act inh: -6; Env fusion inh: -23; CSC inhib: 43; Rce1 inhib: inactive; eIF4H inh: 20; MT1-MMP act inh RFP: -8

What do the screens show for `CCCC(=O)Nc1nc(C(=O)OCC)cs1`?
Yeast UUG start: -13; PABP polyA inh: 8; MT1-MMP act inh: 1; Env fusion inh: -50; Rce1 inhib: inactive; eIF4H inh: inconclusive; MT1-MMP act inh RFP: 1

How did Cc1cc2[nH]c(=S)[nH]c2cc1C do in these assays?
PABP polyA inh: 7; MT1-MMP act inh: -4; Env fusion inh: -274; CSC inhib: -6; Rce1 inhib: inactive; eIF4H inh: 3; MT1-MMP act inh RFP: -2

What do the screens show for `CCOC(=O)/C(=C\C=C\N1CCOCC1)C(C)=O`?
PABP polyA inh: -16; MT1-MMP act inh: -3; Env fusion inh: 5; Rce1 inhib: inactive; eIF4H inh: -1; MT1-MMP act inh RFP: 3

Results for CC(=O)c1ccc(NC(=O)C(C)OC(=O)c2ccc3c(c2)nc(C)n3-c2ccccc2)cc1 (stereo unspecified) ?
PABP polyA inh: 5; MT1-MMP act inh: -4; Env fusion inh: -26; CSC inhib: 5; Rce1 inhib: inactive; eIF4H inh: -5; MT1-MMP act inh RFP: 0

What do the screens show for `COc1ccc(NC(=O)COc2ccc(S(=O)(=O)N3CCOCC3)cc2C)cc1OC`?
Yeast UUG start: -11; PABP polyA inh: 1; MT1-MMP act inh: 3; Env fusion inh: 7; CSC inhib: -26; Rce1 inhib: inactive; eIF4H inh: -15; MT1-MMP act inh RFP: -7

Results for O=C(COc1ccc(-n2cnnn2)cc1)N1CCN(c2ccc(F)cc2)CC1 ?
PABP polyA inh: -1; MT1-MMP act inh: 4; Env fusion inh: -8; CSC inhib: -10; Rce1 inhib: inactive; eIF4H inh: 1; MT1-MMP act inh RFP: 0

What do the screens show for `Cc1ccc2c(N)c(C(=O)c3ccccc3)sc2n1`?
Yeast UUG start: -16; PABP polyA inh: 6; MT1-MMP act inh: 4; Env fusion inh: 0; CSC inhib: 46; Rce1 inhib: inactive; eIF4H inh: -1; MT1-MMP act inh RFP: 1

What do the screens show for `Cc1ccc(CONC(=O)c2ccccc2Cl)cc1`?
Yeast UUG start: -15; MT1-MMP act inh: -2; Env fusion inh: -4; MT1-MMP act inh RFP: 3

How did Cc1nc2cc(-c3ccc(Cl)cc3)nn2c(C)c1CCC(=O)NC(C)c1ccc2c(c1)OCCO2 (stereo unspecified) do in these assays?
Yeast UUG start: -15; PABP polyA inh: -6; MT1-MMP act inh: -1; Env fusion inh: 40; CSC inhib: 12; Rce1 inhib: inactive; eIF4H inh: -5; MT1-MMP act inh RFP: -11

How did COCCCNC(=O)C1CC(=O)N(C2CCCC2)C1 (stereo unspecified) do in these assays?
Yeast UUG start: -3; PABP polyA inh: -9; MT1-MMP act inh: 5; CSC inhib: -1; Rce1 inhib: inactive; eIF4H inh: -3; MT1-MMP act inh RFP: -1

How did COc1ccccc1NC(=O)c1cc(C)nc2ccccc12 do in these assays?
Yeast UUG start: -13; PABP polyA inh: 14; MT1-MMP act inh: 3; Env fusion inh: 24; CSC inhib: -2; Rce1 inhib: inactive; eIF4H inh: -5; MT1-MMP act inh RFP: 1

How did CCCCN(Cc1nc2ccccc2c(=O)[nH]1)C(=O)CN1C(=O)NC2(CCCCC2)C1=O do in these assays?
Yeast UUG start: -9; MT1-MMP act inh: 0; CSC inhib: 4; MT1-MMP act inh RFP: 0

Results for CCn1c(CNS(=O)(=O)c2ccc(Cl)cc2)n[nH]c1=S ?
PABP polyA inh: -2; MT1-MMP act inh: -2; Env fusion inh: 14; CSC inhib: 16; Rce1 inhib: inactive; eIF4H inh: -6; MT1-MMP act inh RFP: 1

Results for O=C1[C@@H](c2ccccc2)[C@@H](c2ccccc2)N1c1cccnc1 ?
Yeast UUG start: -5; MT1-MMP act inh: -5; Env fusion inh: 30; MT1-MMP act inh RFP: -9
